Bioassay records as filed in PubChem BioAssay.
liver stage – exo-erythrocytic parasite development inhibition – imaging, Malaria Box, P. yoelii, HepG2-A16-CD81EGFP, dose response (AID 602156); P. yoelii liver stage in HepG2-A16-CD81EGFP, imaging; first-round cut-off not given here; calls after a first round at 10 µM; hits with a dose series show IC50 in µM; actives 4.8% (n = 5,700); in the data active = a potency from the dose series;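 note: infected cells exposed to compound for 48 hours before fixation; stained parasite area by imaging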
Numbers without * were called inactive; i = inactive. The list is partial. The share of hits here may be higher or lower than overall.

SMILES | liver stage
CCN(CC)c1nc(-c2cccnc2)nc2ccccc12 | i
O=c1c2c(nc3cc(-c4ccccc4)[nH]n13)CCCC2 | i
COCCN(CC(=O)NCc1ccc(OC2CCN(CC(c3ccccc3)c3ccccc3)CC2)cc1)S(=O)(=O)c1ccccc1 | i
CC1CCCN(Cc2nnnn2-c2ccc(Cl)cc2)C1 (centres undefined) | i
CCN(CC)c1ccc(C=Cc2cccc[n+]2CC)cc1 | i
Cc1ccc(-n2c(-c3ccccc3)c[n+]3c2CCCCC3)cc1 | i
Cc1cc(C)c2nc(NS(=O)(=O)c3cccc(C(=O)O)c3)sc2c1 | i
COc1ccc(NC(=O)C2c3ccccc3C(=O)N(CC(C)C)C2c2cccs2)cc1Cl (centres undefined) | i
COc1ccccc1Cc1nc2ccccc2nc1SCC(=O)Nc1cccc(C(F)(F)F)c1 | i
COc1ccc2nc(C)cc(NN=Cc3cccc(OC)c3O)c2c1 | i
CC(C)CNC(=O)c1cnc(NCCC2CCCN2C)nc1NCC1CCCCC1 (centres undefined) | i
CC(C)(C)c1ccc(NC(=O)CN2CCCCC2)cc1 | i
O=C(c1cccs1)N(Cc1cccs1)c1ccc([N+](=O)[O-])cc1 | i
CN(C)c1ccc(/C=C2\SC(=Nc3ccc(F)cc3)NC2=O)cc1 | i
Cc1ccccc1Oc1ccc(S(=O)(=O)NC(CC(C)C)C(=O)O)cc1 (centres undefined) | i
COc1ccc(N2CCN(c3ncnc4sc(C(=O)NCc5cccnc5)c(C)c34)CC2)cc1 | i
Clc1ccc(NCn2nnc3ccccc32)nc1 | i
COc1ccc2nc(C)cc(Nc3ccc(Oc4ccc5ccccc5c4Cl)c(Cl)c3)c2c1 | 0.11µM*
Cc1cc(C)[n+](C)n1CC(O)Cn1c2ccccc2c2ccccc21 (centres undefined) | i
COc1ccccc1NC1=CC(=NS(=O)(=O)c2ccccc2)c2ccccc2C1=O | i
CCOC(=O)C1=C(C)NC2=C(C(=O)CC(c3ccc(OC)c(OC)c3)C2)C1c1ccccc1F (centres undefined) | i
O=C(COc1ccccc1Cl)OCc1cc(=O)n2nc(C3CC3)sc2n1 | i
CCOC(=O)c1cnc2c(C)cccc2c1Nc1cccc(C(C)=O)c1 | i
c1cncc(-c2cc(N3CCc4ccccc4C3)nc(-c3ccncc3)n2)c1 | i
OC1(c2ccc3ccccc3c2)c2c(c3ccccc3c3ccccc23)C2=NCCN21 (centres undefined) | i

Following part.
SMILES | liver stage
CCCOC(=O)C1=C(C)NC2=C(C(=O)CC(c3ccc(OC)c(OC)c3)C2)C1c1cccc([N+](=O)[O-])c1 (centres undefined) | i
CCC(c1nc2ccccc2c(=O)n1-c1ccccc1OC)N(CCc1ccccc1)C(=O)c1ccc(F)cc1 (centres undefined) | i
CCC(c1nc2ccccc2c(=O)n1CCOC)N1CCNCC1 (centres undefined) | i
O=C1C=Cc2ccccc2C1=Cc1c(O)n(-c2ccc(Br)cc2)[nH]c1=O | i
COc1ccc(C2CC(=O)C3=C(C2)NC(C)=C(C(=O)OC2CCCC2)C3c2ccc(Cl)cc2)cc1 (centres undefined) | i
Cc1ccc(-c2nnc(NCc3ccccc3)c3ccccc23)cc1S(=O)(=O)NCC1CCCO1 (centres undefined) | i
CCOc1cc(C2C(C(=O)OC)=CNC=C2C(=O)OC)cc(Br)c1OCC | i
Oc1ccc(-c2ccccc2)cc1CNCCc1ccc(F)cc1 | i
C/C=C/[P+](c1ccccc1)(c1ccccc1)c1ccccc1 | 0.049µM*
CC(=O)Nc1ccc2c(c1)C(=O)N(C(CC(C)(C)C)C(=O)NC1CCCCC1)[C@@H](CCC(=O)O)C(=O)N2 (some centres undefined) | i
O=C1[C@@H]2Cc3c([nH]c4ccccc34)C(CCc3ccccc3)N2C(=O)CN1CCc1c[nH]c2ccccc12 (some centres undefined) | i
Cc1nc2sccn2c1-c1csc(Nc2ccccn2)n1 | i
COc1ccccc1N1CCN(c2ccc(NC(=O)c3cccc(F)c3)cc2C(=O)N2CCCC2)CC1 | i
NC(=NN=Cc1cccc([N+](=O)[O-])c1)SC1CC(=O)N(c2cc(Cl)ccc2Cl)C1=O (centres undefined) | i
CCCCc1ccc(C(=O)NCCCCNc2ccnc3cc(Cl)ccc23)cc1 | i
C[n+]1cccc(/C=C2/c3ccccc3-c3ncccc32)c1 | i
C=CCSc1nc(Sc2ccc(Cl)cc2)c2sc3ccccc3c2n1 | i
CCOC(=O)NN=CC=NNC(=O)OCC | i
CSc1cccc(NC(=O)C2C3C=CC4(O3)C2C(=O)N(CCN2CCCCC2)C4C(=O)NC2CCCC(C)C2C)c1 (centres undefined) | i
CCN1c2ccc([N+](=O)[O-])cc2N(CC)C1(C)c1ccccc1 (centres undefined) | i
CCn1cc(C(=O)N2CCC(C(=O)c3nccs3)CC2)c(C)n1 | i
O=C(Nc1ccc(-c2nc3ccc(NC(=O)c4cccc5ccccc45)cc3[nH]2)cc1)c1cccc2ccccc12 | i
CCOC(=O)c1c(N)n(-c2ccc(CC)cc2)c2nc3ccccc3nc12 | i
Cc1ccc(Sc2cc(C(=O)NCc3ccco3)c3ccccc3n2)cc1 | i
CCOc1ccc(NC(=O)C2c3ccccc3C(=O)N(CC(C)C)C2c2cccs2)cc1 (centres undefined) | i

The list continues:
SMILES | liver stage
CCOC(=O)C1=C(C)NC2=C(C(=O)CC(c3ccc(OC)c(OC)c3)C2)C1c1ccc(SC)cc1 (centres undefined) | i
CCN(CC)c1ccc(/C=C/c2cc[n+](Cc3ccc(F)cc3)cc2)cc1 | i
O=C(CCn1c(=O)[nH]c2ccccc21)NCC1Cc2cccc(-c3ccncc3)c2O1 (centres undefined) | i
O=C(NC1CC1)C1CCN(c2cccc3c2C(=O)N(C2CCCCCCC2)C3=O)CC1 | i
OCCCCCCCCCCC[n+]1ccccc1 | i
O=C(NCc1ccccc1)c1cnc(NCCCN2CCCC2)nc1NCCc1ccccc1 | i
Cc1noc(-c2ccc(O)cc2O)c1-c1ccc2c(c1)OCCO2 | i
CCC(C)OC(=O)C1=C(C)NC2=C(C(=O)CC(c3ccc(OC)cc3)C2)C1c1ccc(O)cc1 (centres undefined) | i
Cc1cccc(NC(=O)c2ccc(NCCCC3CCCCCC3)c([N+](=O)[O-])c2)c1 | i
COc1ccc2c(c1)OC(O)(C(F)(F)C(F)(F)F)CC2=O (centres undefined) | i
CCOc1ccc(CN(CCC(c2ccccc2)c2ccccc2)C(=O)Nc2ccccc2C)cc1 | i
COc1cc(NC(C)CCCN(Cc2ccccc2OC)C(=O)c2cccc(Br)c2)c2ncccc2c1 (centres undefined) | i
O=[N+]([O-])c1cccc(CNc2ccc(F)c(Cl)c2)c1 | i
CCOc1ccc2c(C)nc(N=C(N)NC(C)=O)nc2c1 | i
O=C1c2cccc(N3CCN(Cc4cccn4-c4nccs4)CC3)c2C(=O)N1Cc1ccc(Cl)cc1 | i
Cc1cc(C)n(CC(O)Cn2c3ccc(Br)cc3c3cc(Br)ccc32)n1 (centres undefined) | i
CC(=O)Nc1ccc2c(c1)C(=O)N(C(C(=O)NCC(=O)O)C1CCCCC1)[C@@H](CCC(=O)O)C(=O)N2 (some centres undefined) | i
Oc1ccc(Cl)cc1C1CC(c2ccc(Cl)cc2)=NC(c2ccc(Cl)cc2)N1 (centres undefined) | i
CCN1C(=Cc2ccc3ccccc3[n+]2CC)Sc2cc(OC)c(OC)cc21 | i
c1cc(-c2nc3ccccc3[nH]2)nc(-c2nc3ccccc3[nH]2)c1 | i
COc1cc(CN(CCCN2CCOCC2)C(=O)Nc2cccc(C)c2)ccc1OCc1ccccc1 | i
N#CC(=Cc1cn(Cc2ccc(Cl)cc2Cl)c2ccccc12)c1nc2ccccc2[nH]1 | i
Oc1cccc(-c2cncc(-c3cccnc3)n2)c1 | i
C[n+]1cc(-c2ccc3cccc([N+](=O)[O-])c3n2)cc2ccccc21 | i
Cc1c(NC(=O)C2c3ccccc3C(=O)N3CCc4ccccc4C23)cccc1[N+](=O)[O-] (centres undefined) | i

20 entries already listed, arranged by molecular weight, ascending.
SMILES | liver stage
OCCCCCCCCCCC[n+]1ccccc1 | i
O=[N+]([O-])c1cccc(CNc2ccc(F)c(Cl)c2)c1 | i
CCOc1ccc2c(C)nc(N=C(N)NC(C)=O)nc2c1 | i
c1cc(-c2nc3ccccc3[nH]2)nc(-c2nc3ccccc3[nH]2)c1 | i
COc1ccc2c(c1)OC(O)(C(F)(F)C(F)(F)F)CC2=O (centres undefined) | i
C[n+]1cc(-c2ccc3cccc([N+](=O)[O-])c3n2)cc2ccccc21 | i
Cc1noc(-c2ccc(O)cc2O)c1-c1ccc2c(c1)OCCO2 | i
CCN(CC)c1ccc(/C=C/c2cc[n+](Cc3ccc(F)cc3)cc2)cc1 | i
CCN1C(=Cc2ccc3ccccc3[n+]2CC)Sc2cc(OC)c(OC)cc21 | i
O=C(NC1CC1)C1CCN(c2cccc3c2C(=O)N(C2CCCCCCC2)C3=O)CC1 | i
Cc1c(NC(=O)C2c3ccccc3C(=O)N3CCc4ccccc4C23)cccc1[N+](=O)[O-] (centres undefined) | i
N#CC(=Cc1cn(Cc2ccc(Cl)cc2Cl)c2ccccc12)c1nc2ccccc2[nH]1 | i
O=C(NCc1ccccc1)c1cnc(NCCCN2CCCC2)nc1NCCc1ccccc1 | i
CCC(C)OC(=O)C1=C(C)NC2=C(C(=O)CC(c3ccc(OC)cc3)C2)C1c1ccc(O)cc1 (centres undefined) | i
Cc1cc(C)n(CC(O)Cn2c3ccc(Br)cc3c3cc(Br)ccc32)n1 (centres undefined) | i
CCOc1ccc(CN(CCC(c2ccccc2)c2ccccc2)C(=O)Nc2ccccc2C)cc1 | i
CCOC(=O)C1=C(C)NC2=C(C(=O)CC(c3ccc(OC)c(OC)c3)C2)C1c1ccc(SC)cc1 (centres undefined) | i
CC(=O)Nc1ccc2c(c1)C(=O)N(C(C(=O)NCC(=O)O)C1CCCCC1)[C@@H](CCC(=O)O)C(=O)N2 (some centres undefined) | i
COc1cc(CN(CCCN2CCOCC2)C(=O)Nc2cccc(C)c2)ccc1OCc1ccccc1 | i
O=C1c2cccc(N3CCN(Cc4cccn4-c4nccs4)CC3)c2C(=O)N1Cc1ccc(Cl)cc1 | i

(further entries)
SMILES | liver stage
O=C1CC(c2ccccc2)Oc2ccc(F)cc21 (centres undefined) | i
CCN(CC)CCN1C(=O)c2ccc3c4c(ccc(c24)C1=O)C(=O)N(CCN(CC)CC)C3=O | i
Cc1nc(C23CC4CC(CC(C4)C2)C3)cs1 | i
COc1ccc(OC)c(-c2ccc(O)c(CNC3CCCCCCC3)c2)c1 | i
COc1ccccc1C=CC1=NC(=Cc2ccc(SC)cc2)C(=O)O1 | i
c1ccc(Nc2nc(-c3ccccn3)cs2)nc1 | i
COc1ccc(NC2=C(c3ccc(OC)cc3)C(=O)c3ccccc32)cc1 | i
CCOc1ccc(C(=O)Nc2cc(OC)ccc2OC)cc1 | i
CCOC(=O)c1cnn(-c2ccnc3cc(Cl)ccc23)c1CNC(C)c1ccco1 (centres undefined) | i
c1ccc(-c2c3c(cc4ccccc24)C[N+]2(CCCC2)C3)cc1 | i
CC(=NNc1nc(-c2ccccc2O)nc2ccccc12)c1ccccc1O | i
Cc1cnc(Sc2ccccn2)c([N+](=O)[O-])c1 | i
O=C(C[n+]1cc(-c2ccc(F)cc2)n2c1CCC2)Nc1ccc(Cl)cc1 | i
COc1ccc(C2CC(=O)C3=C(C2)NC(C)=C(C(=O)OC(C)C)C3c2ccc(Cl)cc2Cl)cc1OC (centres undefined) | i
COC(=O)c1c(-c2c(Cl)cccc2Cl)noc1NC(=O)NN1CCCCC1 | 0.65µM*
COc1cc(-c2nc3ccc(N4CCN(C)CC4)cc3[nH]2)cc(OC)c1OC | i
Cc1ccc(NC(=O)c2ccc(NCCCN3CC(C)CC(C)C3)c([N+](=O)[O-])c2)cc1F (centres undefined) | i
Cc1ccnc(Nc2nc(-c3ccc(Cl)cc3)cs2)c1 | i
COc1ccccc1C(c1nnnn1Cc1ccc(F)cc1)N1CCN(C)CC1 (centres undefined) | i
CCCn1c(SCC(=O)Nc2ccccc2Cl)nc2c1c(=O)n(C)c(=O)n2C | i
COc1cc(OC)cc(C(=O)N2CCC(C(=O)Nc3cccc4ccccc34)CC2)c1 | i
CCN(CC)Cc1cc(Nc2nc3ccccc3[nH]2)cc(CN(CC)CC)c1O | i
COc1ccc(-c2nc(-c3ccc4c(c3)-c3cc(-c5[nH]c(-c6ccc(OC)cc6)nc5-c5ccccc5)ccc3C4=O)c(-c3ccccc3)[nH]2)cc1 | i
COC(=O)c1ccc(C(=O)Nc2ccc(-c3nc4cc(NC(=O)c5ccc(C(=O)OC)cc5)ccc4[nH]3)cc2)cc1 | i
CCCN(CC1CC1)C(=O)C1CCCN(c2cccc3c2C(=O)N(Cc2cc(OC)c(OC)c(OC)c2)C3=O)C1 (centres undefined) | i

The list goes on:
SMILES | liver stage
CC(C)(C)c1ccc(-c2nc(C34CC5CC(CC(C5)C3)C4)cs2)cc1 | i
O=C(CC(=NNc1nc(NN=C(CC(=O)C(F)(F)F)C(F)(F)F)nc(N(c2ccccc2)c2ccccc2)n1)C(F)(F)F)C(F)(F)F | i
O=C(CSc1ccc2nnc(-c3cccs3)n2n1)Nc1ccc2c(c1)OCCO2 | i
C=CCOc1c(Br)cc(C=c2sc3n(c2=O)C(c2ccc(OC)c(OC)c2)C(C(=O)OCC)=C(C)N=3)cc1OC (centres undefined) | i
O=C1N(Cc2cc3ccccc3s2)CC2CN(Cc3ccccc3)CCN12 (centres undefined) | i
COc1cc(C=C2SC(=Nc3ccccc3)NC2=O)ccc1OCc1ccccc1Cl | i
Cc1ccc(Cn2c(C)c3cnn(CC(=O)O)c(=O)c3c2C)cc1 | i
CCn1c(CNc2ccc(Cl)cc2)nnc1SCC(=O)Nc1cccc(C)c1C | i
COc1ccc(C2=C(c3ccc(OC)cc3)C3C(=O)C2C2C(=O)N(c4cccc5ccccc45)C(=O)C32)cc1 (centres undefined) | i
C[n+]1c(/C=C\c2ccc(F)cc2)ccc2ccccc21 | i
O=c1c2[nH]c3ccccc3c2ncn1Cc1ccc2c(c1)OCO2 | i
Cc1cc(N2CCN(C3CCCCC3)CC2)n2c(nc3ccccc32)c1C#N | i
Nc1nnc(SCC(=O)Nc2nnc(SCC(=O)Nc3nccs3)s2)s1 | i
C=CC[n+]1cccc2c3ccccc3ccc21 | i
COC(=O)C1=C(C)NC2=C(C(=O)CC(c3ccc(OC)cc3)C2)C1c1ccccc1F (centres undefined) | i
